# RE007 growth inh: less growth of the S. pombe RE007 Vpr strain | S. pombe RE007 Vpr strain, BacTiter-Glo ATP luminescence, 24 h; control for the full effect not named in the record | Potency, µM (top dose mostly 92.2 µM), inactives show at the highest dose activity change, negative = less growth | hit rate 0.21% among 360,000 | AID 651644; active = well fitted falling curve with a large enough effect; inconclusive = small, poorly fitted or top-dose-only effect; inactive = no such curve, though single readings can be large or run the other way;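 note: % is set by controls: 0 for no effect and ±100 for the full control effect; nearly all actives have a fitted effect of over 50% in size; the assay follows cell death caused by Vpr and the record does not say whether a fall means rescue or toxicity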
#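 Fission yeast strain RE007, carrying one chromosomally integrated HIV-1 vpr copy, was seeded at OD 0.01 in PMG+AL medium with 23 nL pinned compound. After 24 h at 30 °C and 99% humidity, viability was read by BacTiter-Glo luminescence.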
# Lassa entry inh: inhibitors of Lassa virus binding or cell entry; Lassa virus pseudotype entry inhibition, cell reporter; control for the full effect not named in the record; Potency, µM (highest dose often 37.9 µM), for the others: at the top dose activity change, negative = inhibition, most hits filed as inhibitors; hit rate 1.2% among 300,000; AID 540256; active means well fitted inhibition curve with a large enough effect; inconclusive means small, poorly fitted or top-dose-only effect, or effect the other way; inactive means flat fitted curve, though single readings scatter; tested in HEK293 cells; note: % is set by controls: 0 for no effect and ±100 for the full control effect; nearly all actives have a fitted effect of over 50% in size; luciferase read-out
# SARS PLP yeast: blocks SARS-CoV papain-like protease in a yeast assay. AID 485353. hit rate 0.19% among 330,000. S. cerevisiae expressing SARS-CoV PLpro, growth rescue; control for the full effect not named in the record. Potency, µM (highest dose often 32.9 µM), without a hit: top-dose activity, positive = growth rescue; active means well fitted rising curve with a large enough effect; inconclusive means small, poorly fitted or top-dose-only effect; inactive means no such curve, though single readings can be large or run the other way; note: 0% is about no effect; nearly all actives have a fitted effect of over 55% in size; growth read by luminescence after 48 h
# NS1 inh: blocks influenza NS1 protein function; S. cerevisiae slowed by influenza A NS1, growth recovery by OD600; Potency, µM (titrated, usually from 46.1 µM), for the others: top-dose activity, positive = more growth; hit rate 0.4% among 270,000; AID 2326; active means well fitted rising curve with a large enough effect; inconclusive means small, poorly fitted or top-dose-only effect; inactive means no such curve, though single readings can be large or run the other way; note: nearly all actives have a fitted effect of over 50% in size
#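 Compounds were scored for reversing the slow growth caused by influenza A NS1 in S. cerevisiae, measured by optical density at 600 nm. Assay medium contained 2% galactose at pH 6.0; NS1-free yeast of the same strain were the positive control.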
# 2A StopGo: lowers the luciferase signal of an FMDV 2A StopGo reporter; AID 1159524; hit rate 1.2% among 410,000; human cells with a luciferase reporter of 2A StopGo recoding; control for the full effect not named in the record; Potency, µM (highest dose often 57.9 µM), inactives show top-dose signal change, negative = less light; active = well fitted falling curve with a large enough effect; inconclusive = small, poorly fitted or top-dose-only effect; inactive = no such curve, though single readings can be large or run the other way; tested in HEK293T cells; note: % is set by controls: 0 for no effect and ±100 for the full control effect; nearly all actives have a fitted effect of over 45% in size; luciferase light after 4 h
# Marburg entry inh: blocks Marburg virus binding to or entry into cells | hit rate 1.8% among 300,000 | Marburg virus pseudotyped entry inhibition, cell reporter; control for the full effect not named in the record; about a third of the inactives were read at about 46 µM | Potency, µM (doses to about 37.8 µM), for the others: at the top dose activity change, negative = inhibition, hits mostly inhibitors; active = well fitted inhibition curve with a large enough effect; inconclusive = small, poorly fitted or top-dose-only effect, or effect the other way; inactive = flat fitted curve, though single readings scatter; tested in HEK293 cells; about a fifth of its hits are not listed in these tables; note: % is set by controls: 0 for no effect and ±100 for the full control effect; luciferase read-out
# Cruzain Triton: inhibitors of Trypanosoma cruzi cruzain with detergent; purified cruzain, Z-FR-AMC fluorescence, 0.01% Triton; Potency, µM, inactives show max response, negative = inhibition, actives largely listed as inhibitors; hit rate 0.43% among 200,000; AID 1478;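 note: plate controls were neutral wells for no effect and buffer without enzyme for full effect; nearly all actives have a fitted effect of over 40% in size; top concentration of the series not given in the record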
# Target sequence (P25779 123-467 limits assumed): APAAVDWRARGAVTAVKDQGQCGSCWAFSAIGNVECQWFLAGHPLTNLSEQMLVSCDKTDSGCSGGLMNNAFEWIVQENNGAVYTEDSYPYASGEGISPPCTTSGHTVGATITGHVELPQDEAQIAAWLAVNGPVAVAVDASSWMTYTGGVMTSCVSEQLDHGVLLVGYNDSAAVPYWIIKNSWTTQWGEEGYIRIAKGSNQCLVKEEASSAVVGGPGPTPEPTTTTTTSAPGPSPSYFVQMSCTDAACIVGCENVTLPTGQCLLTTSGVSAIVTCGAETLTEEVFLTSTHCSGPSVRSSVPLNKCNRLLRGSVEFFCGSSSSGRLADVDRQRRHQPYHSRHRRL
#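 Enzyme 1.5 nM, Z-FR-AMC 2 uM, NaOAc 100 mM pH 5.5, DTT 5 mM, Triton X-100 0.01%; 15 min RT compound preincubation; kinetic ex360/em450, 60 s delta.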
# Cruzain noTriton: blocks cruzain activity in detergent-free assay. P25779. purified cruzain, Z-FR-AMC fluorescence, no detergent. Potency, µM, for inactives: max response, negative = inhibition, actives largely listed as inhibitors. hit rate 2.3% among 200,000. AID 1476;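 note: plate controls were enzyme without inhibitor for no effect and buffer without enzyme for full effect; nearly all actives have a fitted effect of over 40% in size; top concentration of the series not given in the record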
#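 Detergent-free condition (0.00005% Triton X-100) in acetate buffer pH 5.5 with DTT. 1.5 nM enzyme and compound were pre-mixed 15 min, then 2 uM Z-FR-AMC substrate added; reaction progress from fluorescence change between first and third reads (60 s).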
# * marks the source's active call; other numbers are inactive results; ? = inconclusive; · = no result given; & = joins results of further samples; [ ] = dose if it differs, or a comment. Unless noted, calls come from the whole dose curve; as a rule, active = well fitted curve in the direction sought with a large enough effect; inconclusive = small, poorly fitted or top-dose-only effect, or another doubt; inactive = no such curve, though single readings can be large; an effect the other way counts as inactive or inconclusive. Potency is the fitted concentration of half-maximal effect.
SMILES	NS1 inh	Cruzain noTriton	Marburg entry inh	SARS PLP yeast	2A StopGo	Lassa entry inh	Cruzain Triton	RE007 growth inh
CC(CO)(CO)NCc1ccc(-c2ccccc2)cc1	-1%	-5%	28%	20%	26%	13%	4.0%	3%
CS(=O)(=O)N(CCc1ccccc1)CC(=O)Nc1ccccc1	-4%	-7%	26%	13%	-12%	4%	-2.2%	1%
CC(=O)c1ccc(NC(=O)CSc2nccn2C2CCCC2)cc1	·	3%	·	·	14%	15%[46.1 µM]	-1.2%	·
COC(=O)C(c1ccc(OC)c(OC)c1)C1c2ccccc2C=C(C)N1C(=O)OC (stereo not drawn)	·	21%	11%&11%[14.2 µM]	·	·	?	-0.6%	·
COc1ccnc(N2CCN(c3ccccc3)CC2)c1C#N	-17%	4%	-10%	-7%	·	12%	-3.6%	-5%
Nc1ccc(Oc2ccc3c(c2)C(=O)N(CC2CCCO2)C3=O)cc1 (stereo not drawn)	3%	·	?	-1%	-12%	-4%[46.1 µM]	·	15%
COc1ccccc1NC(=O)Cn1c(CN2CCCCC2)nc2ccccc2c1=O	4%	0%	-21%	-17%	45%[activator]	1%	3.7%	2%
Cc1ccc2nc(Nc3ccc(C)c(Cl)c3)c3nncn3c2c1	5%	·	·	0%	23%	·	·	2%
Cc1ccc(C)c(OC2=NS(=O)(=O)c3ccccc32)c1	4%	·	-39%&-39%[46.1 µM]	1%	35µM*	0%[46.1 µM]	·	-9%
COc1cc(Cl)cc(C(c2c(C(=O)O)[nH]c3ccccc23)c2c(C(=O)O)[nH]c3ccccc23)c1O	2.5µM*	·	·	0%	-9%	·	·	2%
O=C(NCc1nc2ccccc2[nH]1)C1=C[C@@H](C2CCCCC2)C[C@@H](OCc2ccc(CO)cc2)O1	10%	·	·	1%	?	·	·	-9%
CCOC(=O)c1sc2nc(CSc3ccccc3Cl)[nH]c(=O)c2c1C	·	·	?	-1%	-19%	?	·	-10%
Cc1cc(=O)oc(C)c1C(=O)NCCN1CCOCC1	-31%	0%	-3%	2%	18%	2%	-6.8%	10%
O=C(NCc1ccc(F)cc1)c1ccc(Cn2c(SCc3ccc(F)cc3)nc3cccnc32)cc1	·	18%	6%[46.1 µM]	·	-10%	·	-7.7%	·
CCOCc1cc(CN2CCC(CCC(=O)NC3CC3)CC2)ccc1OC	-3%	·	·	0%	-17%	·	·	2%
O=C(Nc1ccncc1)c1ccc2c(c1)C(=O)N(C1CCCCC1)C2=O	0%	0%	?	1%	14µM*	-26%	3.9%	-13%
CCCNC(=O)Cc1c(C)n(C(=O)c2ccc(Cl)cc2)c2ccc(OC)cc12	4%	·	?	-1%	-24%	?	·	7%
O=C(CNC(=O)c1ccco1)N=Nc1c(O)[nH]c2ccc([N+](=O)[O-])cc12	13%	·	2%[46.1 µM]	0%	0%	?	·	3%
CCOc1ccc(Nc2cc(=O)[nH]c(=O)[nH]2)cc1	0%	·	·	4%	0%	·	·	0%
CC(=O)c1cc(CN2CCN(C3CCCCC3)C(CCO)C2)cs1 (stereo not drawn)	-1%	·	-23%[46.1 µM]	0%	3%	-14%	·	9%
COc1ccccc1NC(=O)N1CCCC1C(=O)NCc1ccc(F)cc1 (stereo not drawn)	-5%	8%	-4%	0%	8%	-11%	3.2%	17%
COC(=O)c1cccc(NC(=O)c2ccccc2)c1	-43%	·	·	-2%	48%[activator]	·	·	-14%
CSc1ccc(CN(C)CC(=O)Nc2c(F)cccc2F)cc1	·	·	-9%[46.1 µM]	0%	0%	-12%	·	-3%
CCc1c(C)nc(N)nc1Cl	-37%	·	-4%	-1%	-4%	19%	·	-9%
Cc1ccc(S(=O)(=O)N(CC(=O)O)Cc2ccco2)cc1	-4%	·	·	-6%	-12%	·	·	0%
COc1ccc([C@H]2[C@H](C(=O)C(C)(C)C)N3N=Cc4ccccc4C3C23C(=O)OC(C)(C)OC3=O)cc1 (stereo partly drawn)	7%	0%	-16%	-7%	44%[activator]	13%	-2.0%	-10%
COc1cccc(NC(=O)c2sc3nc(C)c(C(=O)Nc4ccc(C)cc4C)c(-c4sccc4C)c3c2N)c1	·	?	?	·	35%[activator]	0%[46.1 µM]	-3.9%	·
N#CC1(Cc2ccc(Cl)cc2)c2ccccc2C=CN1C(=O)c1ccccc1 (stereo not drawn)	-4%	?	-24%	-4%	-13%	-5%	1.1%	9%
Nn1c(Cc2cccc3ccccc23)nnc1SCc1ccccc1Cl	-20%	-4%	7%	-1%	-21%	-1%	-5.8%	-14%
CCc1cc(=O)[nH]c(SCC(=O)N2CCCC2)n1	·	·	-10%[46.1 µM]	0%	-15%	0%	·	6%
COc1ccc(NC(=S)NNC(=O)OC(C)(C)C)cc1OC	0%	-4%	9%	11%	-22%	16%	7.6%	10%
CC(C)n1cc(CN2CCCC(C(=O)Nc3cccc(-c4cc5ccccc5[nH]4)c3)C2)cn1 (stereo not drawn)	25%	·	?	3%	?	7.1µM*	·	-7%
Cc1ccc(N2CC(C(=O)OCc3ccccc3F)CC2=O)cc1 (stereo not drawn)	-22%	-8%	6%	-17%	-9%	-9%	-0.1%	-5%
COc1ccc(OC(=O)c2cn(-c3cccc(OC)c3)c(=O)c3ccccc23)cc1	·	2%	·	·	-30%	?	-2.5%	·
COc1cc(C(=O)NC(=S)Nc2ccc(Cl)cn2)cc(OC)c1OC	8%	·	·	-3%	-11%	·	·	-1%
C/C(=N\N1CCN(c2ccc(Cl)cc2)CC1)c1ccco1	13%	-5%	11%	-10%	0%	-7%	-3.5%	1%
O=C(COC(=O)C1CC2C=CC1C2)Nc1ccccc1 (stereo not drawn)	-8%	5%	?	-8%	20%	1%	-1.2%	-10%
CCN(CC)C(=O)c1cn(CC)c(=O)c2cc(OC)c(OC)cc12	-3%	-11%	1%	-3%	6%	6%	2.1%	46%
COc1ccc(OC)c(-n2c(=S)[nH]c3cc(C(=O)NCCCN4CCCC4=O)ccc3c2=O)c1	1%	-3%	·	3%	·	·	1.0%	·
O=C(NCCc1ccccc1)c1nc(-c2cccs2)no1	-51%	·	23%[46.1 µM]	-1%	25%	1%	·	-23%
COc1ccc(-c2cc(C(F)(F)F)nc(N3CCCCCC3)n2)cc1	0%	6%	18%	0%	10%	-23%	-1.3%	4%
CC(C)(C)c1ccc(CN(Cc2ccccc2)C(c2ccccn2)c2nnnn2C(C)(C)C)cc1 (stereo not drawn)	14%	-3%	?	-4%	-22%	5.6µM*	0.9%	-12%
CCSc1c(C(=O)NC)ccc2c1C(=O)c1ccccc1C2=O	-32%	-6%	0%	1%	0%	-14%	-0.6%	-20%
Cc1ccc(C2(C)NC(=O)N(CCOc3ccccc3)C2=O)cc1 (stereo not drawn)	-7%	5%	-29%	4%	-32%	3%	2.2%	-2%
S=C1NCN(Cc2ccco2)CN1	5%	·	4%	1%	-13%	?	·	-15%
Cn1c(=O)c2c(nc(CN3CCc4ccccc4C3)n2Cc2cccc(Cl)c2)n(C)c1=O	-143%	-25%	-1%	-16%	-17%	·	-3.4%	-12%
COc1cccc(NC(=S)NC(=O)Cc2ccc(Cl)cc2)c1	-4%	·	-2%[46.1 µM]	5%	22%	?	·	-22%
CCc1ccc(N(CC)C(=O)Cn2nc(Cc3cccnc3)c3ccccc3c2=O)cc1	·	4%	-7%[46.1 µM]	·	-17%	4%[46.1 µM]	-1.6%	·
Cc1noc(-c2ccc(-c3noc(-c4ccc(Cl)cc4)n3)cc2)n1	·	-8%	·	·	-5%	-11%[46.1 µM]	0.9%	·
CC(C)CCNS(=O)(=O)c1ccc(-c2ccc(S(=O)(=O)NCCC(C)C)cc2)cc1	1%	10µM*	-13%	?	·	5%	-1.2%	10%

# (listing goes on)
SMILES	NS1 inh	Cruzain noTriton	Marburg entry inh	SARS PLP yeast	2A StopGo	Lassa entry inh	Cruzain Triton	RE007 growth inh
O=c1oc(-c2cccs2)nc2sc3c(c12)CCCC3	-4%	?	-40%	1%	·	?	3.4%	-1%
O=C(Nc1cccnc1)c1ccccc1F	-12%	-2%	4%[46.1 µM]	7%	10%	4%	0.4%	-2%
CC(C)CN(C(=O)CSc1nc2ccccc2o1)c1c(N)n(Cc2ccccc2)c(=O)[nH]c1=O	·	·	?	4%	-18%	-2%	·	31%
c1ccc(-c2nnc(SCc3cn4ccsc4n3)o2)cc1	-70%	-5%	11%	5%	0%	20%	-1.8%	-29%
COc1ccc2oc(C(=O)NC3(C)CCS(=O)(=O)C3)c(C)c2c1 (stereo not drawn)	·	·	?	4%	33%[activator]	28%	·	-16%
CCOC(=O)c1c(NC(=O)c2ccc(S(=O)(=O)N3CCC(C)CC3)cc2)sc2c1CCN(CC)C2	·	-12%	·	·	-7%	-1%[46.1 µM]	0.0%	·
COc1ccc2[nH]cc(CCNC(=O)c3ccc4ccccc4n3)c2c1	-35%	·	?	0%	6%	?	·	-1%
Cc1ccc(/C=N/NC(=O)CCCOc2ccc(Cl)cc2Cl)cc1[N+](=O)[O-]	-7%	-20%	?	-5%	-15%	-24%	-4.4%	-19%
CC(C)(O)c1[nH]c2cc(F)ccc2c1C(C)(C)O	-121%	·	·	-35%	-23%	·	·	-15%
O=C(Cn1c(=O)c2cccn2c2cccnc21)NCc1cccc(F)c1	·	-1%	·	·	-7%	22%[46.1 µM]	-3.9%	·
C=CCn1c(SCC(=O)NC(=O)NCc2ccco2)nc2sc(C)c(C)c2c1=O	3%	5%	-29%	2%	-29%	-9%	6.0%	-29%
Cc1ccc(-c2noc(CCC(=O)N3CCCC3)n2)cc1	4%	-8%	23%	6%	18%	5%	-0.3%	-19%
CCc1nnc(SCC(=O)N(CC)c2ccccc2)c2cc3oc(C)cc3n12	·	-9%	·	·	-16%	0%[46.1 µM]	-0.2%	·
CC(C)(C)C(=O)N(Cc1nc2ccccc2c(=O)[nH]1)Cc1cccs1	11%	-13%	1%	-7%	·	11%	-2.7%	14%
COc1ccccc1NC(=O)CC(=O)CSc1nnc(-c2ccc(C)cc2)n1-c1ccccc1	14µM*	18%	?	10%	-5%	3%	-3.2%	·

# Assay outcomes: PubChem, National Center for Advancing Translational Sciences (NCATS)

# Compounds were not picked by outcome; about 4.5% have a hit in one of these screens.
